PABP polyA inh: blocks human PABP binding to poly(A) RNA. inhibition, % at 35 µM. fluorescence polarization. 290,000 compounds, 1% hits;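 active means 50% or more with normal probe brightness, or confirmed in later tests; inconclusive means above 50% with abnormal brightness, or retests that disagree; inactive means below 50% or failed in later tests; about a fifth of its hits are not listed in these tables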;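 further: calls also rest on retests at 20 µM and on dose response follow-up; controls were probe without protein and protein plus probe with vehicle; some compounds called inactive have numbers as strong as hits; many hits fall short of the cut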
Target sequence (P11940 whole entry, looked up): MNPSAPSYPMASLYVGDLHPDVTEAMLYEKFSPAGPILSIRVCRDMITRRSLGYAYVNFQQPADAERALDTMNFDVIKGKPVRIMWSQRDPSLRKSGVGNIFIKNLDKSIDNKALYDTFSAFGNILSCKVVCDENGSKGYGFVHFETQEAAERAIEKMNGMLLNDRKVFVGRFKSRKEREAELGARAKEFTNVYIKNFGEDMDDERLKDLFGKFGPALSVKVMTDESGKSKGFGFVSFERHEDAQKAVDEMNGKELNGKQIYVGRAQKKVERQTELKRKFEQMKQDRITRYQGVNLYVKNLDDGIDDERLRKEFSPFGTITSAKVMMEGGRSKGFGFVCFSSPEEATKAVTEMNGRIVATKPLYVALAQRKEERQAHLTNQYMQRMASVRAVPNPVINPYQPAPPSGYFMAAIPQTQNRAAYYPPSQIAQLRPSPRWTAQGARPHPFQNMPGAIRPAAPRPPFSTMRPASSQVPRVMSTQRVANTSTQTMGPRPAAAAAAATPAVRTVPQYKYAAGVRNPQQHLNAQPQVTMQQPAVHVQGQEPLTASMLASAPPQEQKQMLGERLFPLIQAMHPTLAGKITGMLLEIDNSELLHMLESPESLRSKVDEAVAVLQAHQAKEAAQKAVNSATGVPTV
MT1-MMP act inh: blocks activation of human MT1-MMP | P50281 | HT1080 RFP-PRO-GFP cells, GFP/RFP ratio fluorescence, overnight; percent of plate control window, DMSO zero | GFP/RFP ratio change, % at 20 µM | 360,000 compounds, 0.061% hits;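 active means GFP/RFP ratio change of at least 30% with cell ATP level not reduced by more than half and red fluorescence within 50% of control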; further: strong numbers were not always called active
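Assay system – RFP-PRO-GFP reporter HT1080 cells · Compound dosing – single dose of 20 µM compound, 1% DMSO final · Incubation – overnight compound exposure at 37 °C · Measure – GFP/RFP fluorescence ratio · Benchmarks – DMSO wells and RFP-L50D-GFP cells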
CSC inhib: blocks cancer stem cells; cancer stem cell-like cells viability, luminescence; inhibition, % at 7.5 µM; 300,000 compounds, 1.1% hits; AID 2717;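 active means mean at 75% or more and at least half the replicates too; inconclusive means mean and replicates disagree; tested in HMLE shEcad cells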;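 further: 0% = median of negative and 100% = median of positive control wells; the first replicate is given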
Rce1 inh: blocks yeast Ras-converting enzyme; 290,000 compounds, 0.27% hits; Q03530; calls only; yeast membranes, quenched prenylated peptide cleavage fluorescence;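 active means fall in fluorescence gain of 50% or more versus controls, with final raw signal at or below 3038400; inconclusive means same 50% fall but final raw signal above 3038400; inactive means fall in fluorescence gain under 50%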;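 further: plate controls were neutral control wells for no effect and wells lacking membranes for full effect; tested at 10 µM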
Env fusion inh: blocks HIV Env-driven cell-cell fusion; HeLa-JRFL Env/CEM21 cell fusion, luciferase; inhibition, % at 12.3 µM; 360,000 compounds, 1.1% hits; AID 651610;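 active means mean replicate inhibition score of at least 50 and every replicate individually at or above 50; inconclusive means only one of the two criteria met; inactive means mean below 50 and not all replicates reaching 50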;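 further: 0% = plate neutral controls and 100% = maraviroc near 300 nM; one replicate is shown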
Yeast UUG start: alters start codon recognition fidelity in yeast; S. cerevisiae UUG-firefly luciferase reporter, luminescence/redox ratio; activity score, % at 18.7 µM; 350,000 compounds, 0.13% hits;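 active means replicate mean at a twofold rise or more, about +100% in these data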;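 further: firefly luciferase made from a UUG start codon reports start codon fidelity; reporter light over untreated wells divided by growth signal over untreated wells; some hits fall short of that in this replicate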
eIF4H inh: inhibitors of RNA binding by human eIF4H. Q15056. eIF4H fluorescence polarization binding assay. inhibition, % at 35 µM. 290,000 compounds, 0.94% hits. AID 2012;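 active means 50% or more with normal probe brightness, or confirmed in later tests; inconclusive means above 50% with abnormal brightness, or retests that disagree; inactive means below 50% or failed in later tests; about a fifth of its hits are not listed in these tables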;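 further: calls also rest on retests at 20 µM and on dose response follow-up; 0% = protein and probe with vehicle and 100% = probe without protein; strong numbers were not always called active; many hits fall short of the cut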
MT1-MMP act inh RFP: also measured in MT1-MMP act inh; calls as there; RFP signal change, %; measured here: RFP expression control read;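 0 = vehicle wells; hits needed this value within 50% of zero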
* hit, by the source's call. Rows were taken by chance. Share with any hit: about 2.9%.

Results for O=C(N/N=C/c1cccc(O)c1)C(=O)N1CCCCCC1 ?
PABP polyA inh: -18.6; MT1-MMP act inh: 2.3; Rce1 inh: inactive; Env fusion inh: 8.5; Yeast UUG start: -17.6; eIF4H inh: 3.9; MT1-MMP act inh RFP: 0.3

How did COc1ccc(OC)c(CNC(=O)CCCn2ccc3cc(S(=O)(=O)N4CCCC4)ccc32)c1 do in these assays?
PABP polyA inh: -8.3; MT1-MMP act inh: 7.1; CSC inhib: -9.5; Rce1 inh: inactive; Env fusion inh: 22.0; Yeast UUG start: 8.0; eIF4H inh: -8.3; MT1-MMP act inh RFP: -9.3

What do the screens show for `Cc1oc(-c2ccccc2)nc1CS(=O)CC(=O)O` (stereo unspecified)?
PABP polyA inh: 16.7; MT1-MMP act inh: -0.5; CSC inhib: 4.6; Rce1 inh: inactive; Env fusion inh: -25.4; Yeast UUG start: -15.5; eIF4H inh: 1.1; MT1-MMP act inh RFP: 4.5

Results for COC(=O)Cn1c(C)nc([N+](=O)[O-])c1Br ?
PABP polyA inh: 9.2; MT1-MMP act inh: -0.4; CSC inhib: -7.4; Rce1 inh: inactive; Env fusion inh: 7.3; Yeast UUG start: -15.7; eIF4H inh: -7.1; MT1-MMP act inh RFP: -4.9

How did S=C(Nc1ccc(OCc2ccccc2)cc1)Nc1cccc(Cl)c1Cl do in these assays?
PABP polyA inh: 11.6; MT1-MMP act inh: -2.3; CSC inhib: 3.9; Rce1 inh: inactive; Env fusion inh: -8.0; Yeast UUG start: -11.0; eIF4H inh: -3.6; MT1-MMP act inh RFP: 2.3

What do the screens show for `COc1ccc(CC(=O)N/N=C/c2sccc2C)cc1`?
PABP polyA inh: -4.7; MT1-MMP act inh: -3.3; CSC inhib: -7.6; Rce1 inh: inactive; Env fusion inh: -8.2; Yeast UUG start: -18.6; eIF4H inh: 2.6; MT1-MMP act inh RFP: -3.1

Results for CCOC(=O)c1ccccc1NC(=O)Cn1cnc2c(cnn2-c2ccc(F)cc2)c1=O ?
PABP polyA inh: 1.8; MT1-MMP act inh: 1.0; Yeast UUG start: -8.4; eIF4H inh: -2.5; MT1-MMP act inh RFP: 1.2

How did CCOC(=O)c1cc(C)nc(SC)c1C#N do in these assays?
PABP polyA inh: -1.8; MT1-MMP act inh: 0.7; CSC inhib: 20.5; Rce1 inh: inactive; Env fusion inh: -21.3; eIF4H inh: -3.6; MT1-MMP act inh RFP: 3.2

Results for C=CCNc1ccc(N2C(=O)CCCC2=O)cc1[N+](=O)[O-] ?
PABP polyA inh: -3.0; MT1-MMP act inh: 7.8; CSC inhib: -2.9; Rce1 inh: inactive; Env fusion inh: 13.3; Yeast UUG start: 5.4; eIF4H inh: -13.4; MT1-MMP act inh RFP: 3.4

Results for O=S(=O)(c1ccc(F)cc1)c1nc(-c2ccco2)oc1NCCCn1ccnc1 ?
MT1-MMP act inh: -1.5; Env fusion inh: -14.9; Yeast UUG start: -9.1; MT1-MMP act inh RFP: 0.4

What do the screens show for `Cc1cc(O)ccc1Nc1nc(-c2cccs2)cs1`?
PABP polyA inh: -6.7; MT1-MMP act inh: 3.9; CSC inhib: 14.7; Rce1 inh: inactive; Env fusion inh: -142.6; eIF4H inh: -1.6; MT1-MMP act inh RFP: 1.0

Results for COc1ccc(-c2nnc(-c3ccc(F)cc3)o2)cc1 ?
PABP polyA inh: 3.7; MT1-MMP act inh: -0.9; CSC inhib: -1.3; Rce1 inh: inactive; Env fusion inh: -108.0; eIF4H inh: 4.8; MT1-MMP act inh RFP: 1.7

How did COCCCN(C(=S)Nc1cc(C)cc(C)c1)C(C)c1ccncc1 (stereo unspecified) do in these assays?
PABP polyA inh: 4.4; MT1-MMP act inh: 1.6; CSC inhib: 4.6; Rce1 inh: inactive; Env fusion inh: 20.6; eIF4H inh: -3.0; MT1-MMP act inh RFP: 6.0

How did COc1cc(OC)nc(NC(=O)CSc2nc3ccccc3[nH]2)n1 do in these assays?
PABP polyA inh: -1.7; MT1-MMP act inh: 3.5; CSC inhib: 8.1; Rce1 inh: inactive; Yeast UUG start: -14.8; eIF4H inh: 1.3; MT1-MMP act inh RFP: 4.1

How did COc1ccc(C(O)(CCC(C)C)C(CN2CCOCC2)c2ccccc2)cc1 (stereo unspecified) do in these assays?
PABP polyA inh: -2.7; MT1-MMP act inh: -23.5; CSC inhib: 21.8; Rce1 inh: inactive; Env fusion inh: 73.0*; Yeast UUG start: -8.0; eIF4H inh: 0.1; MT1-MMP act inh RFP: -18.3

How did COc1cc(C)c(NC(=O)C(=S)NCc2ccccc2)cc1C do in these assays?
PABP polyA inh: 3.6; MT1-MMP act inh: -7.4; CSC inhib: 8.5; Rce1 inh: inactive; Env fusion inh: -20.0; eIF4H inh: -7.1; MT1-MMP act inh RFP: -3.6

What do the screens show for `CCOC(=O)c1ccccc1NC(=O)CSc1nc2ccccc2o1`?
PABP polyA inh: -7.9; MT1-MMP act inh: 3.2; CSC inhib: 2.2; Rce1 inh: inactive; Env fusion inh: -10.8; Yeast UUG start: -14.2; eIF4H inh: -4.4; MT1-MMP act inh RFP: 0.7

How did Cc1cnc(CN(C)C(=O)CC2C(=O)NCCN2CCCc2ccccc2)[nH]1 (stereo unspecified) do in these assays?
PABP polyA inh: -8.6; MT1-MMP act inh: -1.9; CSC inhib: -1.8; Rce1 inh: inactive; Env fusion inh: 13.4; Yeast UUG start: -9.9; eIF4H inh: -3.4; MT1-MMP act inh RFP: 6.1

Results for Cc1ccc(OCC(=O)NN=C2c3ccccc3-c3ccccc32)cc1 ?
PABP polyA inh: 2.4; MT1-MMP act inh: 5.2; Rce1 inh: inactive; Yeast UUG start: -16.0; eIF4H inh: -0.3; MT1-MMP act inh RFP: -3.0

What do the screens show for `Cc1ccc(-n2nc(C)cc2Nc2ncc(Cl)cc2Cl)cc1`?
PABP polyA inh: 13.1; MT1-MMP act inh: -4.9; CSC inhib: -19.2; Rce1 inh: inactive; Env fusion inh: 0.0; Yeast UUG start: 1.1; eIF4H inh: -6.6; MT1-MMP act inh RFP: -4.7

Molecules from the list above containing a Cl atom, in the order listed:
How did S=C(Nc1ccc(OCc2ccccc2)cc1)Nc1cccc(Cl)c1Cl do in these assays?
PABP polyA inh: 11.6; MT1-MMP act inh: -2.3; CSC inhib: 3.9; Rce1 inh: inactive; Env fusion inh: -8.0; Yeast UUG start: -11.0; eIF4H inh: -3.6; MT1-MMP act inh RFP: 2.3

What do the screens show for `Cc1ccc(-n2nc(C)cc2Nc2ncc(Cl)cc2Cl)cc1`?
PABP polyA inh: 13.1; MT1-MMP act inh: -4.9; CSC inhib: -19.2; Rce1 inh: inactive; Env fusion inh: 0.0; Yeast UUG start: 1.1; eIF4H inh: -6.6; MT1-MMP act inh RFP: -4.7

(more compounds)
What do the screens show for `CCC/C(C)=C/c1ccc(CC)cn1`?
PABP polyA inh: 8.7; MT1-MMP act inh: 3.0; CSC inhib: -11.0; Rce1 inh: inactive; Env fusion inh: 8.0; Yeast UUG start: -13.5; eIF4H inh: 4.9; MT1-MMP act inh RFP: 3.9

Results for COc1cc(OC)cc(C(=O)N[C@H](C(=O)Nc2nc(-c3ccc(F)c(F)c3)cs2)C(C)C)c1 ?
PABP polyA inh: -8.2; MT1-MMP act inh: -0.2; CSC inhib: -3.7; Rce1 inh: inactive; Env fusion inh: -1.9; Yeast UUG start: -5.9; eIF4H inh: -4.8; MT1-MMP act inh RFP: -1.1

How did Cc1ccn2c(C(=O)N/N=C/c3ccc(Cl)cc3)c(C)nc2c1 do in these assays?
PABP polyA inh: 25.0; MT1-MMP act inh: 0.8; Rce1 inh: inactive; Env fusion inh: -1.3; Yeast UUG start: -11.0; eIF4H inh: 30.7; MT1-MMP act inh RFP: -1.0

How did COc1ccc2c(c1)CCC/C2=N/OC(=O)c1ccccc1OC do in these assays?
PABP polyA inh: -2.0; MT1-MMP act inh: -1.7; CSC inhib: 7.0; Rce1 inh: inactive; Env fusion inh: 1.8; eIF4H inh: 39.9; MT1-MMP act inh RFP: -5.1

How did CCc1ccccc1NC(=O)c1cc(-c2ccc3c(c2)OCO3)on1 do in these assays?
PABP polyA inh: 3.5; MT1-MMP act inh: 0.2; CSC inhib: -6.8; Rce1 inh: inactive; Env fusion inh: -55.5; Yeast UUG start: -2.8; eIF4H inh: 5.5; MT1-MMP act inh RFP: 1.4

Results for CCOC(=O)Cn1c(=N)n(CCOc2ccc(F)cc2)c2ccccc21 ?
PABP polyA inh: -1.1; MT1-MMP act inh: -0.8; CSC inhib: -6.5; Rce1 inh: inactive; Env fusion inh: -42.2; Yeast UUG start: -3.1; eIF4H inh: -4.2; MT1-MMP act inh RFP: -2.4

How did CN1N=C(/C=C/c2ccccc2)CCC1=O do in these assays?
PABP polyA inh: -4.7; MT1-MMP act inh: -1.5; CSC inhib: 11.8; Rce1 inh: inactive; Env fusion inh: -0.1; eIF4H inh: 9.4; MT1-MMP act inh RFP: -0.8

How did COc1ccc(/C=C(\NC(=O)c2ccc(C)cc2)C(=O)NCC2CCCO2)cc1 (stereo unspecified) do in these assays?
PABP polyA inh: -0.7; MT1-MMP act inh: -5.2; CSC inhib: -0.9; Rce1 inh: inactive; Env fusion inh: -4.2; eIF4H inh: 3.9; MT1-MMP act inh RFP: 0.7

What do the screens show for `CC(C)OCCCNC(=O)c1ccccc1NC(=O)C1=CSCCO1`?
PABP polyA inh: -4.0; MT1-MMP act inh: -3.5; CSC inhib: -11.8; Rce1 inh: inactive; Env fusion inh: -13.0; Yeast UUG start: -8.3; eIF4H inh: -10.8; MT1-MMP act inh RFP: 4.2

What do the screens show for `Cc1ccc(OCCNC(=O)c2ccccc2O)cc1`?
PABP polyA inh: 1.2; MT1-MMP act inh: -0.4; CSC inhib: -4.9; Rce1 inh: inactive; Env fusion inh: -7.1; Yeast UUG start: -9.1; eIF4H inh: -10.3; MT1-MMP act inh RFP: -9.8

How did OCC1=C[C@@H](O)C2C=CO[C@@H](O[C@@H]3O[C@H](CO)[C@@H](O)[C@H](O)[C@H]3O)C12 (stereo partly specified) do in these assays?
MT1-MMP act inh: -1.6; CSC inhib: -10.5; Env fusion inh: -24.9; Yeast UUG start: 1.5; MT1-MMP act inh RFP: 4.4

Results for CC1CCN(C(=O)CSc2nnc(-c3cccnc3)n2C2CCCCC2)CC1 ?
PABP polyA inh: -4.2; MT1-MMP act inh: -2.6; CSC inhib: -3.4; Rce1 inh: inactive; eIF4H inh: -3.5; MT1-MMP act inh RFP: 0.0

What do the screens show for `Cc1cc(N2CCCC(C(=O)Nc3ccc4c(c3)CCC4)C2)n2ncnc2n1` (stereo unspecified)?
PABP polyA inh: -0.2; MT1-MMP act inh: -4.8; CSC inhib: -5.0; Rce1 inh: inactive; Env fusion inh: inconclusive; Yeast UUG start: -18.0; eIF4H inh: -6.9; MT1-MMP act inh RFP: -14.4

How did CC(C)(C)c1cc(NC(=O)CSc2nnc(N)s2)n(-c2ccccc2)n1 do in these assays?
PABP polyA inh: -6.3; MT1-MMP act inh: 2.4; CSC inhib: -4.2; Rce1 inh: inactive; Env fusion inh: -45.0; Yeast UUG start: -19.4; eIF4H inh: -21.0; MT1-MMP act inh RFP: 0.5

How did COc1ccc(-c2cc(C(F)(F)F)c(C#N)c(SCC(=O)Nc3ccccc3C#N)n2)cc1 do in these assays?
PABP polyA inh: inconclusive; CSC inhib: -1.2; Rce1 inh: inactive; eIF4H inh: inconclusive

How did O=C(c1cc(C2CC2)nc2ccc(Br)cc12)N1N=C(C(F)F)CC1(O)C(F)F (stereo unspecified) do in these assays?
PABP polyA inh: -6.2; MT1-MMP act inh: -17.6; CSC inhib: 70.4; Rce1 inh: inactive; Env fusion inh: -23.3; Yeast UUG start: -14.2; eIF4H inh: -3.7; MT1-MMP act inh RFP: -10.1

Source: PubChem BioAssay
